CBX7 AlphaScr – CBX7 inhibition, primary AlphaScreen; O95931; AlphaScreen His6-CBX7 / biotin-H3K27me3 peptide binding; active compounds read low; normalised signal (fraction of DMSO) (test concentration not listed); 66,000 compounds, 1.1% hits; AID 1224903; in the data active = normalised signal below about 0.5;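 note: 100 nL library stock added to about 20 µL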
Target sequence (O95931 whole entry, looked up): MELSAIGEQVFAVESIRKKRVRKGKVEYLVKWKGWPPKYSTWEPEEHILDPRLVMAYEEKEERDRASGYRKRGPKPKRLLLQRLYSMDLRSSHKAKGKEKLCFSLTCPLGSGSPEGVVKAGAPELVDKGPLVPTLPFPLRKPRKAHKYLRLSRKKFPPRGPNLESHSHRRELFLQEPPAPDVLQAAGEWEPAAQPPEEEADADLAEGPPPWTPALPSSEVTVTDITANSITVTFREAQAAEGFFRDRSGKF
CBX7 AlphaScr z-score – further read-out of CBX7 AlphaScr, marked with its call; z-score; measured here: z-score of CBX7 signal; some inactives read as strong as hits; reference of the scale not given here;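 same signal on another scale; lower means less binding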
Starred values were filed as active, the others as inactive; & = joins results of further samples.

Under each structure: CBX7 AlphaScr | CBX7 AlphaScr z-score
(1) Cc1c(Cl)cccc1NC(=O)c1sc2ncn(Cc3ccccc3Cl)c(=O)c2c1C
  1.1 | 0.39
(2) Cc1cccc2c1-c1sc(C(=O)Nc3ccc(F)c(Cl)c3)cc1CO2
  1.1 | 3.5
(3) CCC1=Nc2cc(C(=O)NCCN(CC)CC)ccc2Sc2ccc(C)cc21
  0.93 | -1.3
(4) O=C(Nc1c2c(nn1-c1cccc(Cl)c1)CSC2)c1ccc(Cl)cc1
  1 | 0.51
(5) CCN(CC)CCNC(=O)c1cc2c(s1)CSC2
  1 | 0.45
(6) Cc1cccc(NC(=O)CCc2c(C)nc3cc(-c4ccc(Cl)cc4)nn3c2C)c1C
  1 | 0.36
(7) CCCCn1cnc2cc(NCc3ccc(Cl)cc3)ccc21
  0.22* | -22*
(8) CCN1CCN(C(=O)c2cc(Nc3ccc(C)c(C)c3)nc3ccccc23)CC1
  1.1 | 2.6
(9) COc1ccc(S(=O)(=O)Nc2cccnc2)cc1C(=O)O
  1 | 0.39
(10) Brc1ccc(-c2csc(N3CCC(Cc4ccccc4)CC3)n2)cc1
  1.1 | 3.8
(11) Cc1ccc(-c2cc(C(=O)Nc3ccc(S(N)(=O)=O)cc3)c3ccccc3n2)cc1
  0.94 | -0.56
(12) CCOC(=O)c1c2n(c3cc(Br)c(OC)cc13)CCN(c1ccc(F)cc1)C2
  0.87 | -2.1
(13) COc1ccc(C(=O)c2oc3ccccc3c2NC(=O)C(C)(C)C)cc1
  1.9 | 4
(14) CCOC(=O)CNC(c1ccccc1)c1cc(Br)ccc1NC(=O)CN1CCOCC1 (stereo not given)
  0.97 | -1
(15) Cc1ccc(F)cc1NC(=O)Cc1nn(C)c(=O)c2ccccc12
  0.8 | -2.9
(16) CCOC(=O)c1cccc(NC(=O)[C@H](CSCc2ccccc2)N2Cc3ccccc3C2=O)c1
  0.84 | -3.5
(17) COc1ccccc1CNc1ccc2c(c1)ncn2-c1ccc(C)cc1
  0.22* | -3.7*
(18) Cc1cc(=O)n2nc(N3CCCC(C(=O)NCCN4CCCCCC4)C3)sc2n1 (stereo not given)
  1.2 | 1.4
(19) CCOC(=O)c1cnc2ccc(OCC)cc2c1NCC(C)O (stereo not given)
  0.96 | -0.92
(20) COc1ccc(CNC(=O)C2CCN(Cc3nc(-c4ccccc4F)oc3C)CC2)cc1
  1.1 | 0.1

The list goes on; it opens with the two that closed the last part.
Under each structure: CBX7 AlphaScr | CBX7 AlphaScr z-score
(19) CCOC(=O)c1cnc2ccc(OCC)cc2c1NCC(C)O (stereo not given)
  0.96 | -0.92
(20) COc1ccc(CNC(=O)C2CCN(Cc3nc(-c4ccccc4F)oc3C)CC2)cc1
  1.1 | 0.1
(21) CC1(C)CC(=O)N(CC(=O)NCCCN2CCOCC2)c2ccccc2S1
  1 | 0.29
(22) COc1ccc(Cl)cc1C(=O)N(Cc1nc(-c2ccc(C)cc2)no1)C(C)C
  1 | 0.15
(23) COc1ccc(NC(=O)CC2Oc3ccccc3NC2=O)cc1 (stereo not given)
  0.97 | -0.49
(24) CCCCNC(=O)c1cc2c(n(-c3ccccc3)c1=O)CC(C)(C)CC2=O
  1 | 0.32
(25) Cc1ccc(S(=O)(=O)Nc2ccccc2CNc2ccc(Cl)cc2)cc1
  1 | -0.021
(26) COc1cccc(N2CCN(C(=O)Cn3ncc4c3-c3cc(C)ccc3OC4)CC2)c1
  0.86 | -2.6
(27) COc1ccc(Cl)cc1NC(=O)C(=O)NCCc1ccc(OC)c(OC)c1
  1 | 0.92
(28) Cc1ccnc(NC(=O)Cn2nc(Cc3cccnc3)c3ccccc3c2=O)c1
  0.92 | -2.6
(29) Cc1cc(C)c2nc(C)cc(Nc3ccc(C(=O)O)cc3)c2c1
  0.98 | -0.44
(30) CCN1C(=O)c2ccccc2Sc2ccc(C(=O)NCCC(C)C)cc21
  0.67 | -6.5
(31) Cc1ccc(NC(=O)CSc2nccn2-c2cc(C)cc(C)c2)cc1
  0.82 | -0.18
(32) Clc1ccccc1CSc1nc(NCc2ccc3c(c2)OCO3)c2ccccc2n1
  0.77 | -0.65
(33) Cc1cccc(-n2nc3c(c2NC(=O)CCC2CCCC2)CSC3)c1C
  0.9 | -2.9
(34) O=C1CCCC2=C1C(c1ccc(F)cc1)Nc1ccccc1N2 (stereo not given)
  1 | 0.41
(35) CN(C)CCNC(=O)c1cn(C2CCCCC2)c(=O)c2c1c1ccccc1n2C
  1 | 0.55
(36) Cc1ccc(CNC(=O)CN2C(=O)COc3ccc(S(=O)(=O)N4CC(C)CC(C)C4)cc32)cc1 (stereo not given)
  1 | 0.95
(37) O=C(CSc1nnc(Cc2cc(=O)[nH]c(=O)[nH]2)n1-c1ccc(F)cc1)Nc1nccs1
  1.1 | 2.3
(38) Cc1ccccc1N1C(=O)c2ccccc2C1Nc1ccc(Br)cn1 (stereo not given)
  1 | 1.3
(39) COc1ccc(C(=O)NCc2nnc(SCC(=O)Nc3cccc(C(F)(F)F)c3)o2)cc1OC
  1 | 0.49
(40) O=S(=O)(c1ccccc1)c1nc(C(c2ccccc2)c2ccccc2)oc1N1CCOCC1
  0.89 | -4
(41) Cc1nnc(Sc2cc(C(=O)NCCCN(C)Cc3ccccc3)c3ccccc3n2)s1
  1 | 0.44
(42) NC(=O)CN1C(=O)C(O)(CC(=O)c2ccc3ccccc3c2)c2ccccc21 (stereo not given)
  1 | 0.034
(43) Cc1cc(C)cc(OCC(=O)N(Cc2ccc(C(C)C)cc2)C2CCS(=O)(=O)C2)c1 (stereo not given)
  0.87 | -1.7
(44) Cc1ccccc1OCC(=O)NC(c1ccccc1)c1c(O)ccc2ccccc12 (stereo not given)
  0.72 | -2.7
(45) CCOc1ccc(-c2cc(C(=O)N3CCCCCC3)c3ccccc3n2)cc1
  0.93 | -1.3
(46) O=C1CCCc2c1cc(-c1ccccc1)n2-c1cccc(C(F)(F)F)c1
  0.86 | -1.1
(47) Cc1ccc(C(=O)Nc2ccc3c(c2)ncn3-c2ccccc2C)cc1
  0.65 | -2.2
(48) CNS(=O)(=O)c1cc(-c2nnc(Nc3ccc(Cl)c(Cl)c3)c3ccccc23)ccc1C
  0.91 | -1.7
(49) CC(C)(C)c1ccc(C(=O)Nc2nnc(CCS(=O)(=O)c3ccc(Cl)cc3)s2)cc1
  0.83 | -6.2
(50) COCCN1Cc2cccc(C(=O)Nc3ccc(C)c(F)c3)c2C1=O
  1.1 | 0.089
(51) COc1ccc(-c2nc3c4ccccc4ccn3c2C(C)=O)cc1
  1 | 0.26
(52) O=C(C1CCCN(S(=O)(=O)c2cccnc2)C1)N1CCN(c2ccccc2F)CC1 (stereo not given)
  1 | 0.008
(53) CCn1cc(C(=O)NCc2ccc(OC)cc2)c2cc(OC)c(OC)cc2c1=O
  1.2 | 1.8
(54) O=S1(=O)N=C(N(CCO)c2ccc(Cl)cc2)c2ccccc21
  1.2 | 1.7
(55) Cc1ccc(-c2nn(CCC(=O)NC3CCCCC3)c(=O)c3ccccc23)cc1
  1 | 1.4
(56) Brc1cccc(-c2nc3cnccn3c2NC2CCCCC2)c1
  1.1 | 2
(57) Cc1cccc(C)c1NC(=O)CCCN1C(=O)c2cccnc2C1=O
  0.93 | -1.9
(58) Cc1ccc(S(=O)(=O)Nc2ccccc2C(=O)Nc2nc3ccc(C)cc3s2)cc1
  0.73 | -4.5
(59) COc1ccc(-c2nnc(NC(=O)c3ccc(S(=O)(=O)N4CCC(C)CC4)cc3)o2)c(OC)c1
  0.92 | -3.4
(60) COc1ccccc1/C=C/c1nn2c(-c3ccccc3Cl)nnc2s1
  1 | 0.85
(61) CCC1=Nc2cc(C(=O)NC(C)c3ccc4c(c3)OCCO4)ccc2Sc2ccc(C)cc21 (stereo not given)
  0.85 | -7.9
(62) Nc1c(C(=O)NCCO)nnn1Cc1ccccc1
  1 | 0.15
(63) O=C(CC1C(=O)N(c2ccccc2)C(=O)N1CCc1cccs1)Nc1ccccc1 (stereo not given)
  1 | 0.26
(64) CC(C)OCCCNC(=O)c1cc(Nc2ccccc2)nc2ccccc12
  1 | 0.32
(65) O=C(Cn1nc(-c2ccccc2)c2ccccc2c1=O)Nc1cccc(O)c1
  1 | 0.005
(66) COc1ccccc1-c1coc2c(CN3CCOCC3)c(O)ccc2c1=O
  0.92 | -1.3
(67) NS(=O)(=O)c1ccc(CCNS(=O)(=O)c2ccc3[nH]cc(C(=O)O)c(=O)c3c2)cc1
  0.9 | -2
(68) O=C1CC(c2cccc(F)c2)c2cc3c(cc2N1)OCO3 (stereo not given)
  1 | -0.096
(69) CC1=C(C(=O)Nc2cccc(C)n2)C(c2cccc(Br)c2)C2=C(CCCC2=O)N1 (stereo not given)
  1.7 | 1.3
(70) c1ccc(Cc2nnc3sc(-c4cnccn4)nn23)cc1
  0.97 | -1.1

The results go on.
Under each structure: CBX7 AlphaScr | CBX7 AlphaScr z-score
(71) O=C(CSc1nnc(C2COc3ccccc3O2)o1)N1CCCc2ccccc21 (stereo not given)
  0.97 | -0.29
(72) CCCCCCOc1ccc(N2C(=O)CC(N3CCOCC3)C2=O)cc1 (stereo not given)
  0.91 | -1.4
(73) O=C(Nc1cccc(Cl)c1)C1CCCN(S(=O)(=O)c2cccc3cccnc23)C1 (stereo not given)
  0.93 | -1.1
(74) CCCN1C(=O)C(O)(CC(=O)c2ccc(CC)cc2)c2ccccc21 (stereo not given)
  0.98 | -0.021
(75) COc1ccc(-n2c(Cc3cc(=O)[nH]c(=O)[nH]3)nnc2SCC(=O)N2CCCC2)cc1
  0.85 | -2.2
(76) Cc1ccc(NC(=O)CCc2c(C)nc3cc(-c4cccc(F)c4)nn3c2C)c(C)c1
  1 | -0.11
(77) Cc1oc(-c2ccccc2F)nc1CN1CCCC(C(=O)NCc2cccs2)C1 (stereo not given)
  1 | 0.045
(78) COCCn1nnc2c(=O)[nH]c(C(=O)NCc3ccccc3Cl)nc21
  1 | 0.34
(79) COc1ccc(-c2cc3nc(C)c(CCC(=O)NCc4ccc(Cl)cc4)c(C)n3n2)c(OC)c1
  1 | 0.16
(80) COc1ccc(OCc2nc(Cc3ccc(Cl)cc3)no2)cc1
  1.5 | 3.5
(81) COc1cccc(-c2nc(CS(=O)(=O)CC(=O)NC3CCCc4ccccc43)c(C)o2)c1 (stereo not given)
  1 | 1.2
(82) CCC1=Nc2cc(C(=O)NCc3ccccn3)ccc2Sc2ccc(C)cc21
  0.86 | -2.1
(83) CCOc1ccc(C(=O)Nc2ccc3oc(-c4ccc5ccccc5c4)nc3c2)cc1
  0.85 | -0.6
(84) O=C(O)CCC(=O)N1CCc2cc(S(=O)(=O)Nc3cccc(C(F)(F)F)c3)ccc21
  0.93 | -1.2
(85) CCc1ccc(C(=O)Nc2ccc(Cl)cn2)cc1
  1.1 | 2.9
(86) O=C(Cc1c(C(=O)O)[nH]c2ccc(Cl)cc12)NCc1ccccn1
  1.2 | 1.8
(87) Cc1ccc2c(c1)N(CCC(=O)NC(C)C)C(=O)C(C)O2 (stereo not given)
  1 | 0.42
(88) Fc1cccc(C2CC(c3cccc(Br)c3)Nc3ncnn32)c1 (stereo not given)
  0.99 | -0.22
(89) CC(=O)N1CCc2cc(S(=O)(=O)NC(CC(C)C)C(=O)N3CCc4ccccc4C3)ccc21 (stereo not given)
  0.93 | -1.6
(90) CCC(=O)Nc1nc2nc(COC)cc(=O)n2[nH]1
  1.2 | 2.5
(91) CC(c1ccccc1)c1nnc(NC(=O)c2ccc(F)cc2)s1 (stereo not given)
  1.1 | 0.75
(92) CCc1ccc(CN(C(=O)c2ccc(OC(C)C)cc2)C2CCS(=O)(=O)C2)cc1 (stereo not given)
  0.87 | -0.13
(93) Cc1ccc(S(=O)(=O)CCc2nnc(NC(=O)c3ccccc3)s2)cc1C
  1.2 | 2.2
(94) Cc1cc(=O)[nH]c(SCc2nc3ccccc3n2Cc2ccccc2)n1
  0.99&1 | -0.31&-0.11
(95) CCn1c(=O)c(C(=O)NCc2cccnc2)c(O)c2ccccc21
  0.8 | -1.2
(96) CCn1c(=O)cc(OCC(=O)Nc2ccccc2C(=O)OC)c2ccccc21
  0.83 | -2.8
(97) CCOC(CNC(=O)c1ccc2c(c1)nc(C)n2-c1ccccc1OC)OCC
  1 | 0.1
(98) CCOC(=O)N1CCC(NC(=O)C2CCN(Cc3nc(-c4ccccc4F)oc3C)CC2)CC1
  0.94 | -0.51
(99) O=C(NCCCN1CCCC1=O)c1ccc2c(c1)ncn2C1CCCC1
  0.78 | -2.6
(100) Cc1noc(/C=C/c2cccs2)c1S(=O)(=O)N1CCCC(C(=O)NCc2ccccn2)C1 (stereo not given)
  0.86 | -2.5

Looked up one by one from the list above (7):
Under each structure: CBX7 AlphaScr | CBX7 AlphaScr z-score
(98) CCOC(=O)N1CCC(NC(=O)C2CCN(Cc3nc(-c4ccccc4F)oc3C)CC2)CC1
  0.94 | -0.51
(99) O=C(NCCCN1CCCC1=O)c1ccc2c(c1)ncn2C1CCCC1
  0.78 | -2.6
(92) CCc1ccc(CN(C(=O)c2ccc(OC(C)C)cc2)C2CCS(=O)(=O)C2)cc1 (stereo not given)
  0.87 | -0.13
(97) CCOC(CNC(=O)c1ccc2c(c1)nc(C)n2-c1ccccc1OC)OCC
  1 | 0.1
(96) CCn1c(=O)cc(OCC(=O)Nc2ccccc2C(=O)OC)c2ccccc21
  0.83 | -2.8
(94) Cc1cc(=O)[nH]c(SCc2nc3ccccc3n2Cc2ccccc2)n1
  0.99&1 | -0.31&-0.11
(100) Cc1noc(/C=C/c2cccs2)c1S(=O)(=O)N1CCCC(C(=O)NCc2ccccn2)C1 (stereo not given)
  0.86 | -2.5

(next part)
Under each structure: CBX7 AlphaScr | CBX7 AlphaScr z-score
(101) CCC(=O)N1CCc2cc(S(=O)(=O)NCCC(=O)O)ccc21
  1 | 0.0039
(102) Cc1cccc(C)c1NC(=O)c1cnc2sccn2c1=O
  0.97 | -0.37
(103) CC1=Nc2cc(C(=O)NCc3ccc(Cl)cc3)ccc2Sc2ccc(C)cc21
  0.91 | -4.5
(104) CCOC(=O)c1oc2cccc(OCC(O)CNC(C)C)c2c1C (stereo not given)
  0.94 | -0.66
(105) Cc1ccn2c(NC(=O)CC(C)(C)C)c(-c3ccc(F)cc3)nc2c1
  1 | 0.51

Screening results as filed in PubChem.

This is a subset, so the mix of outcomes need not match the whole.
